# Screens (PubChem BioAssay)
# VDR inh – vitamin D3 receptor (human) inhibition | P11473 | VDR-SRC2-3 peptide fluorescence polarization, 2 h | Potency, µM, without a hit: max response, negative = inhibition, actives largely listed as inhibitors | 400,000 compounds, 0.93% hits | AID 504847; active = well fitted inhibition curve with a large enough effect; inconclusive = small, poorly fitted or top-dose-only effect, or another doubt; inactive = no such curve, though single readings can be large or run the other way; note: series mostly up to about 120 µM
# Target sequence (P11473 whole entry, looked up): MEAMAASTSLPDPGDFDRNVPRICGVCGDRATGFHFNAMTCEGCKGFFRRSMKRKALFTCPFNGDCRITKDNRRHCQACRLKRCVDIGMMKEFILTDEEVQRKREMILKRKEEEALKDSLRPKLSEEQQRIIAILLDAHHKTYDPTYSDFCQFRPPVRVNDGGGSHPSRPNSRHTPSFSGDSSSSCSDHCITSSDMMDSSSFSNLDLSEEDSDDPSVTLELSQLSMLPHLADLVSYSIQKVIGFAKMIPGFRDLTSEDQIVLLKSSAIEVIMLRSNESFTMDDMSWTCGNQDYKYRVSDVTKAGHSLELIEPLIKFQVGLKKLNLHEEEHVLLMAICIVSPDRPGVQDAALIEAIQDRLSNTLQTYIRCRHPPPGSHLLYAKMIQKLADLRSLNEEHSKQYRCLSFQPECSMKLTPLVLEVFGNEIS
#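 Compounds are added to VDR with labelled SRC2-3 coactivator peptide and held 2 h at room temperature. Inhibition of the VDR–peptide interaction is then read as a change in fluorescence polarization.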
# * = called active by the depositor; ? = inconclusive; & = joins results of further samples. % is set by controls: 0 for no effect and ±100 for the full control effect; potency is the fitted concentration of half-maximal effect. This is a subset; count on the stated rates, not on these rows.
canonical_smiles	VDR inh
C/C(NCCN1CCOCC1)=C(\C#N)C(N)=O	11%
CC(C)CC(=O)NC(=S)Nc1ccc(N2CCOCC2)cc1	0%
O=C(NCc1ccc(Cl)cc1)c1csc(-c2cccnc2)n1	-26%
Cc1nc2scc(C)n2c(=O)c1S(=O)(=O)N1CCN(c2ccccc2F)CC1	4%
COc1cc2nc(C3CC3)n(NC(=O)c3ccc(Cl)cc3)c(=O)c2cc1OC	17%
O=C1c2cccnc2C(=O)N1Cc1ccccc1	-10%
CCOC(=O)C1CCCN(C(=O)c2cccc(N3C(=O)c4ccccc4C3=O)c2)C1 (stereo not given)	-5%
COC(=O)C1=NNC2C(=O)N(C3CCCCC3)C(=O)C12 (stereo not given)	0%
COc1ccc(C(=O)NNC(=O)CSc2nc(C(C)C)nc3ccccc23)cc1	6%
CN(C)c1ccc(-c2cncnc2Nc2ccccc2)cc1	?
CN(C(=O)CSc1nnc(C2CC2)n1C1CC1)C1(C#N)CCCCC1	0%
COC(=O)C(O)(CC(=O)Nc1ccc(Cl)cc1Cl)C(F)(F)F (stereo not given)	0%
CCN1C[C@@H]2[C@@H]3C(=O)N(C)C(=O)[C@@H]3[C@](Cc3ccccc3)(C1=O)N2C(=O)c1ccc(C(C)(C)C)cc1	4%
O=C(Nc1ccc(-n2ccnc2P(=O)(O)c2ccccc2)cc1)c1ccccc1Cl	-7%
CC(C)N(C(=O)COC(=O)Cn1cnc2ccccc21)c1ccccc1	15%
CCCOc1ccc(C2C(=O)N(C3CCCCCC3)CC(=O)N2Cc2ccc(OC)cc2)cc1OC (stereo not given)	-4%
CC(=O)NCCCC(=O)NNC1CC(=O)N(c2cccc(Cl)c2)C1=O (stereo not given)	?
Fc1ccc(CSc2ccc(-c3ccc4c(c3)OCO4)nn2)cc1	-5%
CCOC(=O)c1c(C)oc2nc(C)nc(N3CCN(c4ccccc4)CC3)c12	-4%
O=C(Nc1ccc2c(c1)OCCO2)N1CCN(Cc2ccccc2)CC1	-16%
O=C1COc2ccc(C(=O)COC(=O)c3ncc(Cl)c(Cl)c3Cl)cc2N1	-6%
COC(=O)C1(C)NC(c2ccccc2C)C2C(=O)N(c3ccc(F)cc3)C(=O)C21 (stereo not given)	-23%
CC(C)CC(=O)n1sc(NC(=O)c2ccccc2)nc1=O	45µM*
CC(CO)(CO)NC(=O)c1ccc(=O)[nH]n1	1%
N#CCCn1ncc2ccccc21	3%

# An excerpt from above in order of their number in VDR inh, rising.
canonical_smiles	VDR inh
O=C(Nc1ccc2c(c1)OCCO2)N1CCN(Cc2ccccc2)CC1	-16%
CCOC(=O)C1CCCN(C(=O)c2cccc(N3C(=O)c4ccccc4C3=O)c2)C1 (stereo not given)	-5%
CC(CO)(CO)NC(=O)c1ccc(=O)[nH]n1	1%
CCN1C[C@@H]2[C@@H]3C(=O)N(C)C(=O)[C@@H]3[C@](Cc3ccccc3)(C1=O)N2C(=O)c1ccc(C(C)(C)C)cc1	4%
C/C(NCCN1CCOCC1)=C(\C#N)C(N)=O	11%
CC(C)N(C(=O)COC(=O)Cn1cnc2ccccc21)c1ccccc1	15%

# Remaining list, next part:
canonical_smiles	VDR inh
FC(F)Sc1ccc(-n2cc(-c3ccc(Cl)cc3)[n+]3c2CCC3)cc1	-7%
Cc1c(C(=O)NC2CC2)oc2ccc(S(=O)(=O)N3CCCCCC3)cc12	10%
Cc1ccc(C)c(N2CCN(C(=O)CN(C)S(=O)(=O)c3ccc4c(c3)CCC(=O)N4)CC2)c1	?
Cc1nc2sccn2c(=O)c1S(=O)(=O)Nc1ccc(N2CCOCC2)cc1	8%
CC1(C)C(=O)Nc2ccccc2N1C(=O)COc1cccnc1[N+](=O)[O-]	-9%
CC(C)(C)C(=O)Nc1sc2c(c1C#N)CCCCC2	-10%
CCOC(=O)Cc1csc(NC(=O)c2ccc3ccccc3n2)n1	-1%
N=c1c(S(=O)(=O)c2ccc(Cl)cc2)cc2c(=O)n3ccccc3nc2n1Cc1ccco1	-8%
CC(=O)N(c1ccccc1)C1CC(C)N(C(=O)c2ccccc2)c2ccccc21 (stereo not given)	4%
COc1cc(C(=O)NCc2ccc(S(N)(=O)=O)cc2)ccc1OCC(=O)Nc1cccc(C(F)(F)F)c1	0%
CC(CN(C)Cc1ccccc1)OC(=O)c1cccs1 (stereo not given)	6%
CCNc1ncc2nc(C)c(=O)n(C3CC3)c2n1	-10%
O=C(CNC(=O)c1cccs1)NCC(=O)OCc1c(Cl)cccc1Cl	32%
CC(Oc1ccccc1)C(=O)NNC(=O)c1ccccn1 (stereo not given)	1%
C=CCSc1nnc(-c2c[nH]c3ccccc23)n1CC	-6%
O=C(Nc1c(F)cc(F)cc1Br)c1cccnc1	15%
CN1CCN(C(=O)NC2CCCN2S(=O)(=O)c2ccc(Cl)cc2)CC1 (stereo not given)	0%
O=c1c2ccccc2nc2sc3ccccc3n12	-7%
CCOc1ccccc1NC(=O)Cn1c(=O)n(C(C)C)c(=O)c2oc3ccccc3c21	8%
O=C1/C(=C/c2ccccc2)NC(=S)N1C(c1ccccc1)c1ccccc1	-5%
COc1ccc(CNC(=O)Cc2coc3ccc(C)cc23)cc1	-2%
COc1ccc(O)c(-c2[nH]ncc2C(=O)c2ccccc2C)c1	6%
CC1CCN(S(=O)(=O)c2ccc(C(=O)NC3CCS(=O)(=O)C3)cc2)CC1 (stereo not given)	9%
CC(C)=CCN1CCN(CCC2=C(C)CCCC2(C)C)CC1CCO (stereo not given)	-8%
CCc1cc(=O)[nH]c(SCC(=O)NCc2ccc3c(c2)OCO3)n1	-25%
CC(CC(=O)O)CC(=O)Nc1ccc(Br)cc1 (stereo not given)	3%
C=CCNC(=O)C1CCN(c2ccc(S(=O)(=O)N3CCOCC3)cc2[N+](=O)[O-])CC1	-24%
O=C(CCl)Nc1cccn2ncnc12	2%
Cn1c(C(=O)NC2CCCCCC2)cc2c(=O)n(C)c3ccccc3c21	-4%
COc1cccc(-n2nc(-c3ccnn3-c3ccc(F)cc3)c(=O)n(C)c2=O)c1	1%
CC(=O)c1ccc(S(=O)(=O)N2CCN(CC(=O)NC(=O)NC3CCCCC3)CC2)cc1	-11%
CC(C)NC(=O)COc1coc(CN2CCN(c3ccccc3)CC2)cc1=O	-5%
COc1ccc(NC(=O)c2ccccc2NC(=O)NC2CCCCC2)cc1	16%
CO/N=C(\c1nonc1N)N1CCN(c2ccc(Cl)cc2[N+](=O)[O-])CC1	-2%
COC(=O)c1ccc(-c2ccc(/C=N/N3C(=O)C4C5C=CC(C6CC56)C4C3=O)o2)cc1 (stereo not given)	-30%
Cc1ccccc1Cn1nnc(-c2cccc(C(=O)O)c2)n1	-1%
CC(Oc1ccc(Br)cc1)C(=O)Nc1nnc(C2CC2)s1 (stereo not given)	5%
O=C(NCCc1ccccc1)/C(=C\c1ccc([N+](=O)[O-])cc1)NC(=O)c1ccccc1	-17%
O=C1NCC(c2ccccc2)C1C(=O)N/N=C\c1ccc(-c2ccc(Cl)c(Cl)c2)o1 (stereo not given)	-13%
CCc1cccc(NC(=O)Cc2nc(-c3ccc(OC)cc3)no2)c1	11%
Cc1onc(-c2ccccc2)c1C(=O)OCC(=O)N1CCN(c2ccccc2)CC1	0%
CC1(C)SC(=S)N(NC(=O)Nc2ccccc2)C1N(O)C(=O)Nc1ccccc1 (stereo not given)	-4%
Nc1nccc(/C=C/c2ccc(Cl)cc2)n1	-8%
NC(=O)c1ccc(NC(=O)c2cnc3ccccc3n2)cc1	-8%
CC(C)[C@H](NS(=O)(=O)c1cccc(Cl)c1)C(=O)OCC(=O)NC(=O)CN1CCCC1=O	-4%
CC1CCCN(c2csc3ccccc3c2=O)C1 (stereo not given)	7%
CN(Cc1ccncn1)C(=O)CC1C(=O)NCCN1Cc1cccc(Oc2ccccc2)c1 (stereo not given)	1%
Cc1cccc(-n2c(=O)c3ccccc3n(Cc3ccc(F)cc3)c2=O)c1	-17%
Cc1cc(Nc2c(C)n(C)n(-c3ccccc3)c2=O)n2c(nc3cc(F)c(F)cc32)c1C#N	-23%
CC(C)CNC(CC(=O)Nc1cccc([N+](=O)[O-])c1)C(=O)O (stereo not given)	-15%

# Further entries
canonical_smiles	VDR inh
COc1ccc(NC(=S)NC(NC(=O)c2cccc(C)c2)C(Cl)(Cl)Cl)c([N+](=O)[O-])c1 (stereo not given)	6%
Cc1cc(NC(=O)CSc2nnc(Nc3ccccc3C)s2)no1	-15%
Cc1cnn(Cc2ccccc2)c1N	-3%
Oc1ccc(/C=N/Nc2cc(N3CCCC3)nc(N3CCCC3)n2)cc1O	-25%
CCCSCCCNC(=O)Cn1cc2c(n1)CCCCC2	-10%
Cc1ccc(NC(=O)/C=C/c2cccc([N+](=O)[O-])c2)nc1	3%
CCCCc1n[nH]c2c1/C(=N/O)CC(c1ccccc1)C2 (stereo not given)	11%
Cc1ccc(-c2cc(=O)c3ccccc3[nH]2)cc1	0%&-4%
O=C(ON=C1CCSCC1)c1ccccc1	7%
CN(C)CCCNc1c2c(nc3ccccc13)CCC2	-28%
Cn1c(=O)c2c(ncn2CC(=O)Nc2cc(Cl)cc(Cl)c2)n(C)c1=O	-13%
Cc1cn(CC(=O)NCCN2CCOCC2)c(=O)[nH]c1=O	-17%
Cc1nn(C)cc1CNC(=O)c1cnn2c(C(F)F)cc(C3CC3)nc12	9%
Nc1ncnc2c1ncn2[C@H]1O[C@@H](CSCC[C@@H](N)C(=O)O)[C@H](O)[C@@H]1O	1%
COc1ccc(C2CC(c3ccccc3)=NN2C(=O)COC(=O)C2(C)CC2(Cl)Cl)cc1 (stereo not given)	-17%
Cc1ccc(-c2nc3cccnc3o2)cc1NC(=O)COc1ccc(Cl)cc1C	1%
NS(=O)(=O)c1ccc(NC(=O)c2ccc3c(c2)OCO3)cc1	-14%
COc1ccc(Cl)cc1C(=O)NCC(c1ccc(N(C)C)cc1)N1CCCC1 (stereo not given)	1%
O=c1[nH]c2ccccc2c(O)c1SCCO	0%
O=C(NC(=S)N1CCN(Cc2ccccc2)CC1)c1cccnc1	-11%
CCOc1ccc(OCCC(=O)OCC(=O)Nc2ccc(C)c(S(=O)(=O)N3CCCCC3)c2)cc1	-5%
CCCCN(C(=O)C1CC(=O)N(c2ccc3c(c2)OCCO3)C1)c1c(N)n(CCCC)c(=O)[nH]c1=O (stereo not given)	-5%
O=C(COc1ccccc1)Nc1sc2c(c1C(=O)Nc1ccccc1Cl)CCCCC2	7%
CCc1ccc(CN2CC(C(=O)O)CC2=O)cc1 (stereo not given)	2%
O=C(CSc1n[nH]c(-c2ccccc2)n1)N1CCN(c2ccc(F)cc2)CC1	10%
O=C(c1cc(-c2ccc(F)cc2)on1)N1CCCC1	-17%
Cc1ccc(NC(=O)NC(=O)N(C(C)C)S(=O)(=O)c2ccc(C)cc2)cc1	-9%
C[C@H](CO)N1C[C@H](C)[C@@H](CN(C)S(=O)(=O)c2ccc(F)cc2)Oc2ccc(NC(=O)Cc3cn(C)c4ccccc34)cc2C1=O	-12%
N[C@H](CCCP(=O)(O)O)C(=O)O	3%
Cc1ccccc1NC(=O)C(=O)NC(C)CCc1ccccc1 (stereo not given)	-3%
CC(C)(C)c1ccc(C(=O)Nc2ccc(-c3nc4ccccc4o3)c(O)c2)cc1	-2%
Cc1ccc(C)c(Sc2ccc(NC(=O)CCl)cc2)c1	-21%
CCCCc1nc2n[nH]c(N)c2c2c1CCC2	1%
CC(=O)C1C(c2ccc(OC(F)F)cc2)NC(=O)NC1(O)C(F)(F)F (stereo not given)	-14%
CC(C)c1nccn1S(=O)(=O)c1cc([N+](=O)[O-])ccc1Cl	-5%
CC(C)C[C@H](NC(=O)OC(C)(C)C)C(=O)N[C@@H](CO)[C@H](O)[C@@H]1C[C@@H]1C(=O)N1CCCC1	-11%
CC(=O)N1CCc2cc(S(=O)(=O)NCCC(=O)NC3CCCCCC3)ccc21	22%
CC(C)(C)NC(=O)C(c1ccncc1)N(C(=O)Cn1nnc(-c2cccs2)n1)C1CCCCC1 (stereo not given)	4%
COc1ccc(C)cc1NC(=O)CSc1nc(=O)n(CCCN2CCOCC2)c2c1CCCC2	-8%
CC1CCC(NC(=O)c2cc3c(Cl)nc4ccccc4c3s2)CC1 (stereo not given)	4%
COc1cc2c(cc1NC(=O)COC(=O)[C@@H](NC(=O)c1ccccc1)C(C)C)oc1ccccc12	-8%
O=C1N/C(=C\c2ccc(O)cc2)C(O)=C1C=NCc1ccccc1	-17%
O=C(CCc1ccccc1)NNC(=O)Nc1ccc(Br)cc1	-5%
CC(=O)c1ccc(NC(=S)N(Cc2ccccc2)C(C)C2CC2)cc1 (stereo not given)	?
CCC(CC)C(=O)c1c[nH]c(C(=O)NCc2ccccn2)c1	18%
CCC1CCCCN1C(=O)Cn1c(=O)n(CCCCCC(=O)NCc2ccc(F)cc2)c(=O)c2sccc21 (stereo not given)	20%
Cc1c(Cl)c(C(F)F)nn1CC(=O)NC1C(=O)N2C(C(=O)O)=C(CSc3nnnn3C)CSC12 (stereo not given)	?
O=C(NCC1CCCO1)c1cccc(NC(=O)c2cccs2)c1 (stereo not given)	2%
COc1ccc(Nc2cc(C)nc(N3CCN(C(=O)c4ccc5c(c4)OCO5)CC3)n2)cc1	-12%
CC(Cc1cccs1)NC(=S)Nc1ccc(Cl)c(Cl)c1 (stereo not given)	-6%
O=C1COc2ccc(C(=O)C[n+]3cccc(O)c3)cc2N1	-8%
Cc1csc(NS(=O)(=O)c2cccc([N+](=O)[O-])c2)n1	-23%
